Screening results from PubChem.
TRPML1 inh = human mucolipin-1 channel inhibition; Q9GZU1; TRPML1-inducible cells, Ca2+ dye fluorescence, FDSS; hits give low values; inhibition of EC80 agonist-evoked calcium signal; activity change, negative = inhibition, % (test concentration not listed); hit rate 0.02% among 390,000; AID 624415; in the data active means activity change below about -50%; inconclusive means about -30% to -50%; inactive means above about -30%;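 also: stimulus is agonist 54-4 at its EC80 concentration; % is scaled to controls: 0 for no effect and ±100 for the full control effect; compound concentration not given in the record; the text of the record puts the active cut at -80%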
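TRPML1-DL cells, Tet-induced overnight (~16 h, 37 °C) at 1,500 cells/well, were loaded with Ca8 no-wash dye plus quencher for 45-90 min at room temperature. Compounds were pinned during FDSS kinetic reading; agonist 54-4 at EC80 (4 uM final) then added.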
Six1-Eya2 inh = Six1/Eya2 interaction inhibition | AlphaScreen GST-Six1/His-Eya2 binding, biochemical; hits give low values; control for the full effect not named in the record | hit rate 0.56% among 360,000 | activity change, % (concentration not given with the values) | Q15475+O00167; in the data active = activity change below about -65%; inconclusive = about -30% to -65%; inactive = above about -30%; also: % is scaled to controls: 0 for no effect and ±100 for the full control effect
Target sequence (O00167 whole entry, looked up): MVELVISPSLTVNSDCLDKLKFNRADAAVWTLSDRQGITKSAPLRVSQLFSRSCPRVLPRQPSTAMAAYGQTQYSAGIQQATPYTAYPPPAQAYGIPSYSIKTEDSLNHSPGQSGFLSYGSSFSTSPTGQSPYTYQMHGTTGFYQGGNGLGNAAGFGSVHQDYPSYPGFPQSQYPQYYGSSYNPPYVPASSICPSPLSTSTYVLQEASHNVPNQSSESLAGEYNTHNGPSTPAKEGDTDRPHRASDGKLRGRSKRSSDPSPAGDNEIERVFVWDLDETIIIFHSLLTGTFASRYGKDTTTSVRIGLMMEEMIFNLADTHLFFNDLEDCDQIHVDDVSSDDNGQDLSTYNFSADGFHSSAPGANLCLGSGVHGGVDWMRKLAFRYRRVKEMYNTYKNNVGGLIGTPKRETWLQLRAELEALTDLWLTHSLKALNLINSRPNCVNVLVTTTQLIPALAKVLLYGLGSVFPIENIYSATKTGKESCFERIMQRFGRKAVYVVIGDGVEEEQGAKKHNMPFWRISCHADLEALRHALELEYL
Target sequence (Q15475 whole entry, looked up): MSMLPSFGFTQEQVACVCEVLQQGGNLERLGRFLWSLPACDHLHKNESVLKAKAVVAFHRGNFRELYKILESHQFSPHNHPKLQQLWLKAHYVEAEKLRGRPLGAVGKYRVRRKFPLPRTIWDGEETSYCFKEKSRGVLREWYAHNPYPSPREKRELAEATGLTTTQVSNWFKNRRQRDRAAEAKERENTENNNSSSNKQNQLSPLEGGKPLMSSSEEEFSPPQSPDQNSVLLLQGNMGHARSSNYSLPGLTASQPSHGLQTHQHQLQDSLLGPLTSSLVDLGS
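GST-Six1 + His-Eya2 (5X stock: 250/500 nM); Tris pH 8.0, 300 mM NaCl, 0.05% BSA, 0.02% Tween 20; GSH donor/Ni acceptor beads; 1 h 37 °C dark; AlphaScreen readout.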
CtBP-E1A inh = inhibitors of CtBP/E1A interaction. activity change, % (no concentration beside the values). hit rate 0.49% among 340,000. AlphaScreen GST-E1A/His-CtBP binding, 1536-well; hits give low values; control for the full effect not named in the record; in the data active means activity change below about -65%; inconclusive means about -30% to -65%; inactive means above about -30%; also: % is scaled to controls: 0 for no effect and ±100 for the full control effect; compound concentration not given in the record
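GST-E1A and His-tagged CtBP (125 nM each as 5X stock) were preincubated with pin-transferred compound for 2 h at 37 °C in the dark, then glutathione donor and nickel acceptor beads were added for 1 h before AlphaScreen reading.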
D2 ag = human D2 receptor agonism in beta-arrestin assay; hit rate 0.084% among 360,000; DiscoveRx PathHunter D2 beta-arrestin, luminescence, 90 min; 100% = 57 uM dopamine signal; activation, % (no concentration beside the values); P14416; in the data active = activation above about 40%; inconclusive = about 15% to 40%; inactive = below about 15%; also: compound concentration not given in the record; the text of the record calls up to 30% inactive
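DiscoveRx PathHunter D2 beta-arrestin cells (2,100/well) attached overnight, then compound-stimulated 90 min at 37 C in HBSS/10 mM HEPES/0.1% Tween-20 buffer; beta-galactosidase complementation read by luminescence after 1 h at ambient temperature. Dopamine 57 uM final (EC100) as control.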
PINK1 expr mod = changes PINK1 expression. PINK1 immunofluorescence, high-content cytometry, 24 h. Potency, µM (top dose mostly 76.6 µM), inactives show at the highest dose activation (PINK1 increase), hits mostly activators. AID 624263. hit rate 0.2% among 410,000; active = well fitted activation curve with a large enough effect; inconclusive = small, poorly fitted or top-dose-only effect; inactive = flat fitted curve, though single readings scatter; cell line not stated here;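 also: potency is read from the fitted curve at half-maximal effect; % of control where 0% means no effect; nearly all actives have a fitted effect of over 65% in size; a mitochondrial uncoupler was the plate control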
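Cells are seeded, rested 12 hours, then given compound at five concentrations or DMSO for 24 hours. After fixation, blocking and antibody staining, PINK1 amount and mitochondrial localization are scored; CCCP serves as control.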
TRPML1 ag = human mucolipin-1 channel agonism. Q9GZU1. TRPML1-expressing cells, Ca2+ dye fluorescence, FDSS; host cell line not named in the record; reference of the full effect not given here. activation, % (concentration not given with the values). hit rate 0.12% among 410,000. AID 624414; in the data active = activation above about 50%; inconclusive = about 30% to 50%; inactive = below about 30%; also: 0% is about no effect; the text of the record puts the active cut at 80%
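Kinetic FDSS Ca2+ read in Tet-induced TRPML1-DL cells (ABD Ca8 dye plus quencher, 45-90 min RT loading): baseline, then compound, then 110 s agonist window; EC80 agonist 54-4 at 4uM final added afterwards for a 110 s antagonist window.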
* hit, by the source's call; u = inconclusive; x = no result given; & = joins results of further samples; [ ] = another dose, or the depositor's remark.

SMILES	TRPML1 inh	Six1-Eya2 inh	CtBP-E1A inh	D2 ag	PINK1 expr mod	TRPML1 ag
O=c1cc(-c2ccccc2)nc(SCc2nc(-c3ccc(Cl)cc3)no2)[nH]1	-11	x	x	x	0.9%	-0.3
CS(=O)(=O)N(Cc1ccc(C(=O)NC2CCCC2)cc1)c1ccccc1	0	1	x	11	8.8%	-0.3
CC(C)(C)OC(=O)C[C@@H]1C/C=C\C[C@H](CC(=O)N(CCO)Cc2ccccc2)C(=O)N[C@H](Cc2ccccc2)COC1=O	-16	9	3	3.0	0.9%	-0.1
Cc1ccc(-c2nn(-c3ccccc3)cc2C(=O)Nc2ccc(C(=O)O)cc2)cc1	-9	-2	2	0.8	0.3%	-0.3
CCOc1ccccc1Nc1nnc(SCC(=O)N(C)C2CCS(=O)(=O)C2)s1 (stereo unspecified)	-6	-2	3	-6.4	-3.0%	-0.4
Cc1cccc(NS(=O)(=O)c2cc3c4c(c2)CC(=O)N4CCC3)c1C	3	0	-12	2.2	0.4%	1.5
Fc1ccc2nc(Nc3nc4c(s3)CCCC4)sc2c1	-3	2	1	-5.1	17%	1.4
COc1ccc(CCNC(=O)COc2ccc([N+](=O)[O-])cc2)cc1	4	-2	x	2.9	-1.1%	0.7
COc1ccc(C(=O)N2CCCC(CO)C2)cc1OC1CCN(C(C)C)CC1 (stereo unspecified)	1	3	-2	-1.7	-0.3%	-0.2
Cc1ccc(Cn2c(=O)n(-c3ccccc3)c(=O)c3ccc(C(=O)NCc4ccco4)cc32)cc1	-11&3	2	0	2.3	5.8%&5.9%	0.2&-0.4
COc1ccc(-c2[nH]ncc2-c2nc(C)cs2)c(O)c1	29	-2	u	-2.1	0.8%	2.2
COc1ccc(O)c(/C=N/NS(=O)(=O)c2ccc(C)cc2)c1	-5	2	-5	-0.8	4.4%	-0.3
O=C(OCC(=O)N1CCC(Cc2ccccc2)CC1)c1cncc(Br)c1	12	-2	5	-1.1	-0.2%	0.0
C[C@H](CO)N1C[C@H](C)[C@@H](CN(C)Cc2ccc(-c3ccccc3)cc2)Oc2ccc(NC(=O)Cn3cnnn3)cc2C1=O	4	-6	-27	0.1	-1.0%	0.0
C#Cc1ccc([C@@H]2C=C(C(=O)OCC=C)O[C@H](OCCCCO)C2)cc1	36	-4	3	0.7	-0.2%	1.0

The final 2 records of the part above are carried over, then new ones follow:
SMILES	TRPML1 inh	Six1-Eya2 inh	CtBP-E1A inh	D2 ag	PINK1 expr mod	TRPML1 ag
C[C@H](CO)N1C[C@H](C)[C@@H](CN(C)Cc2ccc(-c3ccccc3)cc2)Oc2ccc(NC(=O)Cn3cnnn3)cc2C1=O	4	-6	-27	0.1	-1.0%	0.0
C#Cc1ccc([C@@H]2C=C(C(=O)OCC=C)O[C@H](OCCCCO)C2)cc1	36	-4	3	0.7	-0.2%	1.0
CCOC(=O)c1c(NC(=O)c2cc3n(n2)C(C(F)(F)F)CC(c2ccccc2)N3)sc(C)c1C (stereo unspecified)	-7	8	12	-5.2	11%	0.1
O=C(NC1CC(=O)N(c2ccccc2)C1)C1CCCCC1 (stereo unspecified)	1	x	x	x	1.9%	-0.6
O=C(O)Cc1ccc(NC(=O)Nc2cccc3ccccc23)cc1	35	-3	2	-4.7	0.2%	1.0
C=CCn1cc(/C=C2\SC(N3CCOCC3)=NC2=O)c2ccccc21	26	-2	x	-4.5	-1.2%	0.8
COc1ccc(C(=O)NCC(c2cccs2)N2CCc3ccccc32)c(OC)c1 (stereo unspecified)	13	u	-26	1.0	0.7%	2.5
CCC(CC)c1nn2c(=O)cc(COc3ccc(NC(=O)c4ccc(Cl)cc4)cc3)nc2s1	-11	x	x	x	u	-0.2
COc1ccc(NC(=O)C#Cc2ccccc2)cc1OC	-8	-4	-6	-3.9	-1.4%	0.1
COc1ccc(S(=O)(=O)NC(C)C(=O)NCc2ccccn2)cc1Cl (stereo unspecified)	-1	-1	-2	-5.2	0.3%	0.7
CCc1ccc(CNc2ccc3c(c2)ncn3C)cc1	14	-17	-19	0.2	-2.4%[38.3 µM]	-0.3
O=C(CNC(=O)c1ccccc1Br)N/N=C/c1ccc(O)cc1	16	-3	x	5.5	-0.6%	0.9
O=C(CCCCCN1C(=O)CCC1=O)Nc1ccc(Br)cc1F	-11	12	-2	-1.1	-1.6%	0.0
CCCNC(=O)c1cnc2c(-c3ccc(OCC)c(OCC)c3)c(C)nn2c1-c1ccccc1	-14	x	x	x	3.3%	1.0
CCOC(=O)c1sc(=NC(=O)c2ccc(Cl)s2)n(C)c1C	-12	-2	-4	3.2	8.9%	0.9
CC1(C)CC(=O)C=C(NCCN2CCN(C(=S)NC3CCCCC3)CC2)C1	-4	1	-1	-1.6	1.5%	-0.3
Cn1c(=O)[nH]c(=O)c2c1nc(Br)n2CCSc1ncccn1	-7	3	10	-0.8	-2.8%[38.3 µM]	-0.5
COc1cccc(NC(=O)c2sc3nc(N4CCOCC4)c4c(c3c2N)CCCC4)c1	2	9	x	-6.3	0.1%	-0.4
Cc1oc(-c2ccccc2Cl)nc1CS(=O)CC(=O)NCc1ccc(Cl)cc1 (stereo unspecified)	4&-15	-5	-1	-0.1	1.8%&1.0%	-0.4&-0.7
CC(=O)N1CCCc2ccc(NS(=O)(=O)c3ccccc3)cc21	1	5	0	-0.5	-0.2%	2.5
COc1ccc(CN(C(=O)c2ccc(C)cc2)C2CCS(=O)(=O)C2)cc1 (stereo unspecified)	-22	1	2	-3.2	-0.5%	0.1
Cn1c(=O)nc2n(Cc3ccccc3)c3cccc(Cl)c3cc-2c1=O	1	-4	-2	-8.8	8.1%	-1.4
COc1ccccc1CC1(C)NC(=O)N(CC(=O)Nc2cc(C)on2)C1=O (stereo unspecified)	1	1	5	0.3	-3.3%	1.4
Cc1ccc(C2C3=C(CC(C)(C)CC3=O)N=C3c4ccccc4C(=O)C32)cc1 (stereo unspecified)	40	u	u	-7.1	2.5%	2.8
Cc1ccc(-n2ncc3c(NCCc4ccc(S(N)(=O)=O)cc4)ncnc32)cc1	-16	x	x	x	-0.2%	-1.0
O=C(CCc1ccc(S(=O)(=O)N2CCOCC2)cc1)Nc1ccccc1F	9	1	x	-2.1	0.4%	-1.3
Cc1cc(C)c(NC(=O)C2CCCN2CCO)c(C)c1 (stereo unspecified)	-14	-2	7	-3.3	x	-0.4
COc1ccc2[nH]c3c(NCc4ccco4)ncnc3c2c1	-12	u	0	0.5	u	-1.1&0.4
Cc1ccc(Nc2cc(C)nc3ccc(C)cc23)cc1	5	-5	-13	-2.7	25%	0.6
CC(=O)Nc1ccc(CN2CCCC(C(=O)c3ccc(C(F)(F)F)cc3)C2)cc1 (stereo unspecified)	5	-1	3	-4.8	-0.1%	-0.6
CCOC(=O)C1CCN(Cc2nnc(-c3cccc(Br)c3)o2)CC1	x	-6	5	-0.5	2.3%	x
Cc1ccc(Cn2nnc3sc4c(c3c2=O)CCC(C)C4)cc1 (stereo unspecified)	-13	x	x	x	-0.9%	0.2

Structures from the list above that contain an NH in an aromatic ring:
SMILES	TRPML1 inh	Six1-Eya2 inh	CtBP-E1A inh	D2 ag	PINK1 expr mod	TRPML1 ag
O=c1cc(-c2ccccc2)nc(SCc2nc(-c3ccc(Cl)cc3)no2)[nH]1	-11	x	x	x	0.9%	-0.3
COc1ccc(-c2[nH]ncc2-c2nc(C)cs2)c(O)c1	29	-2	u	-2.1	0.8%	2.2
Cn1c(=O)[nH]c(=O)c2c1nc(Br)n2CCSc1ncccn1	-7	3	10	-0.8	-2.8%[38.3 µM]	-0.5
COc1ccc2[nH]c3c(NCc4ccco4)ncnc3c2c1	-12	u	0	0.5	u	-1.1&0.4

The list continues:
SMILES	TRPML1 inh	Six1-Eya2 inh	CtBP-E1A inh	D2 ag	PINK1 expr mod	TRPML1 ag
Cc1cccc(N2CCN(C(=O)c3ccc4nc(-c5ccco5)c(-c5ccco5)nc4c3)CC2C)c1 (stereo unspecified)	-20	u	-12	0.5	1.0%	0.3
CNC(=O)CN(c1cc(C)ccc1C)S(C)(=O)=O	-3	1	3	-4.8	1.2%	-0.2
Cc1cc(Cl)c(OCCOCCN2CCCC(C)C2)c(Br)c1 (stereo unspecified)	-7	-9	3	0.8	3.9%	-0.1
O=S1(=O)CC(N2CCN(Cc3ccccc3F)CC2)CN1Cc1cn(Cc2ccccc2)nn1 (stereo unspecified)	x	0	5	x	-0.8%	-0.8
CCNC(=O)N1C[C@H]2CON(C)[C@H]2C[C@H]1c1ccccc1Br	-15	1	7	-8.6	1.6%	0.3
CC1CN(C(=O)COC(=O)c2cc(=O)c3ccccc3o2)CC(C)O1 (stereo unspecified)	-1	2	-9	1.6	-0.1%	0.4
CCOc1ccc(S(=O)(=O)Nc2ccc3oc4c(c3c2)CC(C)CC4)cc1 (stereo unspecified)	3	x	x	x	u	0.3
Cc1c(-n2c(CN3C(=O)c4ccccc4C3=O)nc3ccccc3c2=O)c(=O)n(-c2ccccc2)n1C	-21	-4	3	-3.9	0.1%	-0.1
Oc1ccc(C[C@@H]2CNC(=S)N2CCc2cc(C(F)(F)F)cc(C(F)(F)F)c2)cc1	-9	-2	4	1.6	2.8%	0.7
COc1ccc(CCN(C)C2CCCN(S(=O)(=O)c3ccc(C)cc3)C2)cc1OC (stereo unspecified)	2	-7	-8	-4.9	0.6%	0.1
Cc1ccc(-c2cnc3cc(C)nn3c2)cc1	1	-1	9	-3.9	2.1%	1.3
Cc1cc(=O)[nH]c(SCC(=O)NC2CCCc3ccccc32)n1 (stereo unspecified)	-25	6	x	-2.2	1.2%	-0.1
CCn1c(=NC(=O)CN2C(=O)CCC2=O)sc2c(C)cc(C)cc21	26	-2	0	0.5	-0.6%	-0.3
COc1ccc(-c2cc(C(C)=O)c(C)n2CCC(=O)Nc2ccc(C)cc2Cl)cc1	12	x	x	x	0.6%	-0.3
Cc1ccc(Cc2nc(-c3cccc(C)c3)no2)cc1	6	99	103	-0.4	-0.3%[38.3 µM]	3.0
CCN(CC1CCCN(CCc2cccc(OC)c2)C1)C(=O)c1ccoc1 (stereo unspecified)	2	8	-2	-3.9	2.7%	0.1
COc1cc2c(cc1NC(=O)CN1CCN(S(=O)(=O)c3ccc(C)cc3)CC1)oc1ccccc12	2	3	8	-0.9	0.9%	0.7
COc1ccc(C2CCN(Cc3cccnc3)CC2O)cc1 (stereo unspecified)	-6	-2	-1	-3.9	0.0%	-0.1
Cc1csc(NC(=O)c2cc(C)oc2C)n1	-3	-11	-8	-2.8	3.7%	-0.9
Cc1ccc(-c2csc(N3CCC[C@@H]3C(=O)NCCn3c(C(F)(F)F)nc4ccccc43)n2)cc1	67	-1	10	2.7	4.4%	1.1
Cc1ccc2c(c1)N(C(=O)CCC(=O)NCc1ccccc1F)CC(C)O2 (stereo unspecified)	-7	x	x	x	-0.5%	3.9
O=C(COC(=O)COc1ccc(Cl)cc1Br)NC1CCCC1	-3	0	4	-2.6	0.0%	-1.0
O=C(CCc1ccccc1)NCCCN1CCOCC1	2	4	0	-1.5	-2.3%	4.1
